High-throughput results (PubChem)
NPYLR7 agonist = mosquito NPYLR7 agonism | HEK293T NPYLR7/Galpha15, GCaMP6s calcium fluorescence | activation, % at 10 µM | hit rate 0.15% among 270,000; in the data active = activation above about 40%;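 note: 0% = vehicle and 100% = reference agonist at the receptor; some compounds past the cut are filed as inactive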
NPYLR7 agonist max-min = also measured in NPYLR7 agonist; calls as there; activation, %; measured here: Max-Min RFU normalised activation; some inactives read as strong as hits;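 span of the calcium signal over five minutes; 0% = vehicle and 100% = native peptide agonist; compound fluorescence can raise it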
* hit, by the source's call; & = joins results of further samples. Some of the compounds tested (hit frequency here may not be typical).

SMILES	NPYLR7 agonist	NPYLR7 agonist max-min
CC(C)(C)C(=O)N1CCCC(C(=O)C(C#N)C(=O)N2CCCC2)C1 (stereo not drawn)	5	2
CCCn1cc(C(=O)N(C)CC2CCCCO2)c(C)n1 (stereo not drawn)	9	5
CC(C)NC(=O)N(C)Cc1ccc(Br)cc1	2	4
Cc1nccn1CC1(CNC(=O)[C@@H]2C[C@@H]3C=C[C@H]2C3)CC1	16	1
CCOc1nc(-c2cccc(C(F)(F)F)c2)n(-c2cccc(NS(=O)(=O)c3ccc(C)cc3)c2)n1	0	0
Cc1ccc(CN2CCNC(=O)C2CC(=O)NC2Cc3ccccc3C2)o1 (stereo not drawn)	4	2
CCOC(=O)c1c(-c2ccc(F)cc2)csc1NC(=O)CCCl	-7	-14
CC(=O)c1nnn(-c2nc(N(C)C)nc(N(C)C)n2)c1C	-1	-1
COc1ccccc1N1CCN(c2nc(-c3cccs3)nc3cc(Cl)ccc23)CC1	-32	-26
Cc1nn(C)cc1-c1ccnc(NCc2ccon2)n1	2	-1
CC(=O)c1c(C)[nH]c(C(=O)COC(=O)c2nccnc2N)c1C	6	13
Fc1ccc(-c2cn3cc(Cl)ccc3n2)cc1	-2	-5
O=S(=O)(c1ccc(Cl)cc1)N1CCN(C(c2ccccc2)c2ccc(Br)cc2)CC1 (stereo not drawn)	9	5
CC1CC(=NNC(=S)NC(C)C)CC(C)(C)C1 (stereo not drawn)	9	6
O=C(NCc1cccc(-c2ncc(-c3ccc(F)cc3)[nH]2)c1)C(Cl)Cl	-1	11
COc1ccc(OCC(=O)N/N=C2/C=C(C)CC2)cc1	7	4
NC(=O)c1c(NC(=O)COC(=O)C2CC2)sc2c1CCCC2	5	11
C=CCn1c(=S)[nH]c2ccccc21	5	7
COC(=O)c1c(C)c(C(=O)CN(CC2CCCO2)C(=O)COCc2ccccc2)c(C)n1C (stereo not drawn)	-10	1
CCOc1cccc(CN(C(=O)OC(C)(C)C)C2CCC(C(=O)N3CCOC(COCc4ccccc4F)C3)CC2)c1 (stereo not drawn)	21	9
Cc1ccc(CN(CCS(C)(=O)=O)C2CCc3ccccc32)cc1 (stereo not drawn)	6	-21
Cc1ccc(Cn2cnc3c(cnn3CCNC(=O)c3ccc(C(C)(C)C)cc3)c2=O)cc1	-4	-7
COc1ccc(S(=O)(=O)NC(=O)C2(C)CCN2C(=O)C2(c3ccc(Cl)cc3)CC2)cc1 (stereo not drawn)	7	4
O=C(CSc1ccc(-c2ccc([N+](=O)[O-])cc2)nn1)N1CCCCC1	9	2
C(=Nc1ccc(-c2nc3ccccc3[nH]2)cc1)c1ccc2c(c1)OCO2	-1	-2
(next part)
SMILES	NPYLR7 agonist	NPYLR7 agonist max-min
Cc1ccnc(NCn2cnc3ccccc32)c1	1	0
COc1ccc(-c2nc(Nc3nc(C)cc(C)n3)n[nH]2)cc1OC	-3	-4
CN(C(=O)CSc1nc2sc3c(c2c(=O)[nH]1)CCCC3)C1CCCCC1	-13	-20
COc1ccc(Cc2ncc3c(n2)CN(c2ncncc2C(C)C)C3)cc1	4	3
COc1ccc(Nc2ccccc2C(=O)N2CC[C@@H](O)C2)cc1	-19	-21
COc1cccc(COC2CN(CCc3ccccc3)C(=O)CN(C(=O)c3cc(C)[nH]n3)C2)c1 (stereo not drawn)	-5	-14
O=C(c1ccco1)N(Cc1cccc(C(F)(F)F)c1)CC1CC(c2ccc(Cl)o2)=NO1 (stereo not drawn)	-4	-4
CC(=O)Nc1ncc(Cc2ccc(Cl)cc2)s1	-21	-20
Brc1cc2c(cc1CSc1n[nH]c(-c3ccccc3)n1)OCO2	1	4
O=C(CCc1ccsc1)Nc1cc2c(cc1Cl)OCCCO2	9	5
CCOC(=O)N1CCN(C2CCCN(C(=O)C3=CCCCC3)C2)CC1 (stereo not drawn)	16&1	4&0
CC(=O)Nc1ncc(C(=O)N2CCCC(N(C)CCc3ccccc3)C2)s1 (stereo not drawn)	-1	0
CCCCOC(=O)C1=C(C)N(C)C(=O)NC1c1ccc(C(=O)OC)cc1 (stereo not drawn)	4	5
Cc1nn(-c2ccc(N3CCN(C(=O)c4ccc5ccccc5c4)CC3)nn2)c(C)c1C	-6	-12
CCOC(=O)c1c(N)sc(C(=O)Nc2cccc(C(F)(F)F)c2)c1C	-7	-13
O=C(c1scc2c1OCCO2)N1CCCn2cncc2C1	2	3
CCC(C)CN(CC(=O)N1CCc2sccc2C1COc1ccc(C)cc1C)C(=O)c1cccc(F)c1 (stereo not drawn)	-3	2
Cc1ccc(-n2nnc3c(=O)n(CC(=O)N4CCc5ccccc54)cnc32)cc1C	-4	-8
CCn1nc(C(=O)O)c2c1CCN(C(=O)C(c1cccnc1)N1CCCC1)C2 (stereo not drawn)	5	-5
C/C(=N/N=C1\NC(=O)C(CC(=O)Nc2ccccc2[N+](=O)[O-])S1)C1CCCCC1 (stereo not drawn)	9	6
CCN(C(=O)c1ccc(OC(F)F)cc1)C(C)CO (stereo not drawn)	-1	4
O=C1c2ccc3ccccc3c2C(=O)C1c1cc(=O)c2ccccc2[nH]1 (stereo not drawn)	5	3
CC/C=C\C/C=C\C/C=C\C/C=C\C/C=C\CCCC(=O)OCC	-1	-3
O=C(NCc1ccccc1)Nc1ccc(N2CCc3ccccc3C2)c(C(=O)NCCc2ccccc2)c1	-5	0
CCOc1ccc(-c2ccc(=O)n(Cc3ccc(F)cc3)n2)cc1	10	1
Later entries.
SMILES	NPYLR7 agonist	NPYLR7 agonist max-min
C=C(C)NN=c1sc2ccccc2n1C	2	3
Nc1nn2cc(-c3ccccc3)nc2s1	-8	-7
O=C(c1ccc(C(F)(F)F)c(F)c1)N1CCC(N2CCCCC2)CC1	-10	-15
COc1ccc(Oc2cc(N3CCN(C(=O)c4cccc(F)c4)C(C)C3)ncn2)cc1 (stereo not drawn)	-11	-10
CCCCn1c(C(=O)NCC(O)CO)cc2c(=O)n(C)c(=O)n(C)c21 (stereo not drawn)	2	1
C=CCn1c(SCc2cccc(C)c2)nc2c1c(=O)[nH]c(=O)n2C	-3	-4
CCc1ccccc1-c1cc(OC)nc(N)n1	-3	-9
COc1cccc(C(=O)N2CCC(n3c(=O)oc4ccc(OC)cc43)CC2)c1	6	1
C/C=C/c1ccc2oc(-c3ccc(O)cc3)c(C)c2c1	2	0
CCc1c(C)sc2nc(SCC(=O)N3CCNC3=O)n(CC3CCCO3)c(=O)c12 (stereo not drawn)	8	6
CN(Cc1cc2n(n1)CCNC2)CC1(c2ccccc2)CC1(C)C (stereo not drawn)	15	12
COCCc1noc(C2CCCN(c3ncnc4c3c(C)nn4C)C2)n1 (stereo not drawn)	-6	-5
CCOc1ccc(C2C(C(=O)c3cccs3)=C(O)C(=O)N2CCN(C)C)cc1 (stereo not drawn)	5	9
CCn1c(C)cc(O)c(C(c2cccc(F)c2)N2CCN(CCO)CC2)c1=O (stereo not drawn)	7	4
CC(=O)Cn1c(=O)c2c(nc3n(C(C)C)c(C)c(C)n23)n(C)c1=O	18	10
N#CC(C#N)=C1C=CN(c2ccc(Br)cc2)C=C1	-4&4	-14&0
CCCNc1cc(C)nc2c(-c3ccc(Cl)cc3)c(C)nn12	-7	-7
CCn1cc(C(=O)N2CCC3(CCCN(C)CC3)CC2)c(=O)c2ccc(C)nc21	5	4
COc1nc(C(=O)NCC2CCC2)cc2ccccc12	-8	-9
O=S(=O)(c1ccc(Cl)s1)N1CCN(C(=S)NCC2CCCO2)CC1 (stereo not drawn)	0	1
Cc1ccc(-n2c(CN(C)S(C)(=O)=O)n[nH]c2=O)cc1C	12	-2
Cc1c(C(=O)NCc2cccc(Cl)c2)sc(=O)n1Cc1ccccn1	17	12
O=C1OC(c2ccco2)=N/C1=C\c1ccc(Cl)c(Cl)c1	-2	-8
CC(C)CC1=NN(C(=O)CCc2ccc3c(c2)OCO3)C(O)(C(F)(F)F)C1 (stereo not drawn)	2	-2
Cc1ccc(S(=O)(=O)Nc2cc(C)ccn2)cc1	-1	-4
More records
SMILES	NPYLR7 agonist	NPYLR7 agonist max-min
CC(=O)Nc1nnc(Cn2cnc3c2c(=O)n(C)c(=O)n3C)s1	2	1
O=S(=O)(c1ccccc1F)N1CCN(c2ccc3nnc(-c4ccco4)n3n2)CC1	4	9
COCCCN(CC(=O)N1CCc2sccc2C1c1ccc(Cl)cc1Cl)C(=O)c1ccc2c(c1)OCO2 (stereo not drawn)	18	15
CN1C(=O)C(=Cc2ccc(OCCOc3ccccc3)cc2)C(=O)N(C)C1=O	4	6
Cc1ccc(C(NCc2cc(=O)n3cccc(C)c3n2)C2CC2)cc1 (stereo not drawn)	-3	-4
Cc1oc(-c2ccc(Cl)cc2)cc1C(=O)N1CCC1(C)C(=O)O (stereo not drawn)	-3	-8
CCCc1ccccc1N1C(=O)CSC1c1ccc(NC(=O)c2ccccc2Cl)cc1 (stereo not drawn)	1	11
OCCCn1cnc2cc(-n3cc4ncccc4c3O)ccc21	1	0
COc1ccc(Br)cc1CNc1ccc2nnc(C)n2n1	0	0
Nc1cc(-c2ccc(Cl)cc2)nn1-c1ccc(C(=O)NC[C@@H]2CCCO2)cc1	-8	-12
CN(C(=O)CN1C(=O)NC2(CCc3ccccc32)C1=O)C1CCS(=O)(=O)C1 (stereo not drawn)	13	17
CCCC(=O)N1CCN(c2nc(C)cc(NCC)n2)CC1	8	2
O=C(OCc1cc2c(cc1Br)OCO2)c1cccc(O)c1	0	0
CC(C)(C)SCCN1CC(=O)N2CC[C@@H](O)C[C@H]2C1=O	-5	-10
CCCOC1CCCN(Cc2c(C(=O)N(C)CCc3ccccc3)nc3c(C)cccn23)C1 (stereo not drawn)	1	-2
COc1ccc2c(c1)C1(SCCN1C(=O)Nc1cccc(F)c1)C(=O)N2Cc1ccccc1Cl (stereo not drawn)	-1	9
CCC(=O)c1ccc(OCC(O)CN2C(=O)NC(C)(c3ccco3)C2=O)cc1 (stereo not drawn)	-11	-4
COC(=O)C1=C(C)N(c2ccc3c(c2)OCCO3)C(=S)NC1c1cccc(OC)c1OC (stereo not drawn)	3	4
O=C(NCc1cccs1)c1cccnc1N1CCN(S(=O)(=O)c2ccc(Cl)s2)CC1	-7	-13
O/N=C1/CCCc2c1nc(-c1ccc(F)cc1)n2O	1	14
CCc1ccc(O)c(C(=O)NC(C)c2cn(-c3ccccc3)nn2)c1 (stereo not drawn)	10	9
O=S(=O)(c1ccc(Nc2ccc3c(c2)OCCCO3)nc1)N1CCCC1	6&8	9&6
COCCN(CC(=O)Nc1cc(-c2ccccc2)nn1-c1ccccc1)C(=O)c1ccc(Cl)c([N+](=O)[O-])c1	23	22
COc1ccccc1CN1CC(C(=O)N(C)CCCn2nc(C)cc2C)CCC1=O (stereo not drawn)	1	-3
CCC(=O)NCCOc1ccc2nnc(-c3ccc(OC)cc3)n2n1	-11	-13

Given with two lines to a compound: entries from further up
Order of results – NPYLR7 agonist | NPYLR7 agonist max-min
> COc1ccc(Br)cc1CNc1ccc2nnc(C)n2n1
    0 | 0
> Nc1cc(-c2ccc(Cl)cc2)nn1-c1ccc(C(=O)NC[C@@H]2CCCO2)cc1
    -8 | -12
> CN(C(=O)CN1C(=O)NC2(CCc3ccccc32)C1=O)C1CCS(=O)(=O)C1 (stereo not drawn)
    13 | 17
> CCCC(=O)N1CCN(c2nc(C)cc(NCC)n2)CC1
    8 | 2
> O=C(OCc1cc2c(cc1Br)OCO2)c1cccc(O)c1
    0 | 0
> CC(C)(C)SCCN1CC(=O)N2CC[C@@H](O)C[C@H]2C1=O
    -5 | -10
> CCCOC1CCCN(Cc2c(C(=O)N(C)CCc3ccccc3)nc3c(C)cccn23)C1 (stereo not drawn)
    1 | -2
> COc1ccc2c(c1)C1(SCCN1C(=O)Nc1cccc(F)c1)C(=O)N2Cc1ccccc1Cl (stereo not drawn)
    -1 | 9
> CCC(=O)c1ccc(OCC(O)CN2C(=O)NC(C)(c3ccco3)C2=O)cc1 (stereo not drawn)
    -11 | -4
> COC(=O)C1=C(C)N(c2ccc3c(c2)OCCO3)C(=S)NC1c1cccc(OC)c1OC (stereo not drawn)
    3 | 4
> O=C(NCc1cccs1)c1cccnc1N1CCN(S(=O)(=O)c2ccc(Cl)s2)CC1
    -7 | -13
> O/N=C1/CCCc2c1nc(-c1ccc(F)cc1)n2O
    1 | 14
> CCc1ccc(O)c(C(=O)NC(C)c2cn(-c3ccccc3)nn2)c1 (stereo not drawn)
    10 | 9
> O=S(=O)(c1ccc(Nc2ccc3c(c2)OCCCO3)nc1)N1CCCC1
    6&8 | 9&6
> COCCN(CC(=O)Nc1cc(-c2ccccc2)nn1-c1ccccc1)C(=O)c1ccc(Cl)c([N+](=O)[O-])c1
    23 | 22
> COc1ccccc1CN1CC(C(=O)N(C)CCCn2nc(C)cc2C)CCC1=O (stereo not drawn)
    1 | -3

More entries
SMILES	NPYLR7 agonist	NPYLR7 agonist max-min
Cc1ccc2nc(C)c(NC(=O)C3CCCO3)c(=O)n2c1 (stereo not drawn)	-2	-2
CC1=C(C(=O)OCC(C)C)C(c2cc3c(cc2[N+](=O)[O-])OCO3)C2=C(CC(c3ccccc3)CC2=O)N1 (stereo not drawn)	19	21
COc1ccc2c(c1)C1(SCCN1C(=O)c1ccccc1C)C(=O)N2Cc1ccccc1Cl (stereo not drawn)	10	13
COC(=O)c1ccc(NC(=O)c2cn(C)c3c(=O)n(-c4ccccc4)c(=O)[nH]c23)cc1	-1	-2
CCCCCCCCNC(=O)c1c(O)c2ccccc2[nH]c1=O	7	4
CN(C)c1ccc(CNc2nccc3c2ncn3C)cc1	-2	-8
COc1ccc(Nc2c3c(nc4nncn24)CCC3)cc1Cl	-3	-3
Cc1nc(C)c(CC(=O)N(C)CCn2ccc3ccccc32)c(=O)[nH]1	0	9
CCC(CC)C(=O)N1CC(=O)Nc2ccc(Cl)cc2C1c1ccc(F)cc1 (stereo not drawn)	25	15
COC(=O)C1CCCCN1C(=O)CCc1nnc(CCc2ccc(OC)cc2)o1 (stereo not drawn)	2	0
CN(C)CCCNC(=O)c1ccc(-c2cc3nc(NCc4cccnc4)n(C)c(=O)c3s2)cc1	14	11
CN(C)CCN1C(=O)CC2Sc3ccccc3N=C21 (stereo not drawn)	8	10
O=C(c1ccc(Cl)cc1)N1CCc2nc(Cc3ccc(F)cc3)nc(N3CCOCC3)c2C1	-3	2
Cc1ccc(-c2ccnc(N(C)CC3(CO)CCOCC3)n2)c(C)n1	-6	-9
Cn1cc(CNC(=O)C2CCCN(C3CCN(Cc4ccncc4)CC3)C2)cn1 (stereo not drawn)	-4	-4
